MLL AF4-AF9 inh: inhibitors of AF4 peptide binding to AF9, primary screen, biochemical, AlphaScreen, biotin-AF4 peptide, FLAG-AF9, single point | Protein AF-9 (Homo sapiens), P42568 | inhibition, % at 10 µM | hit rate 0.47% among 350,000 | AID 651704, 2012;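 active = every replicate reaching a set inhibition limit, whatever the replicate mean, cut at about 25% in these data; inconclusive = mean inhibition reaches that limit but some replicates miss it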;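 note: 0% = plate neutral control median and 100% = total signal loss; the record names both 10 and 1 µM as test concentration; the first replicate is given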
Target sequence (P42568 whole entry, looked up): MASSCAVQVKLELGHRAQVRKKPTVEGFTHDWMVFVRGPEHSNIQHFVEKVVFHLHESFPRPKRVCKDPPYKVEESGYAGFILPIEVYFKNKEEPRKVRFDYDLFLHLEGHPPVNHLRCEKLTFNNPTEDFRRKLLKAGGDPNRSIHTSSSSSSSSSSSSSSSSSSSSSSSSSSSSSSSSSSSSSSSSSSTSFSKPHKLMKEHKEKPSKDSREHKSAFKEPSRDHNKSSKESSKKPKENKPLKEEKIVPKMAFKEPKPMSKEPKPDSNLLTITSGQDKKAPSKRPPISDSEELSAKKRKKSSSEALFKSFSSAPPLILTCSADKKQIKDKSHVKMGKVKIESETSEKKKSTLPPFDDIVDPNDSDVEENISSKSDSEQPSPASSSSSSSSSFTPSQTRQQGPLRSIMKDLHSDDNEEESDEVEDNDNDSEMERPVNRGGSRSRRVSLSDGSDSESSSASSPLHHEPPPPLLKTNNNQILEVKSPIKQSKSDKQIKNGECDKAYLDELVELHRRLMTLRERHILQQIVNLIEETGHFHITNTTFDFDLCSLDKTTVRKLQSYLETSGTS
FGF22 binding: binders of human FGF22 protein, primary screen, FGF22 synaptogenesis inhibitor project, biophysical, thermal shift, single point; calls only at 9.99 µM; Fibroblast growth factor 22 (Homo sapiens), Q9HCT0; hit rate 1.5% among 340,000; recombinant FGF22 thermal shift, SYPRO orange fluorescence; percent of sucrose octasulfate shift, DMSO zero;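 active = melting point raised past a set limit in the mean and every replicate; inconclusive = no clear call; three in four hits are not shown here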
Target sequence (Q9HCT0 whole entry, looked up): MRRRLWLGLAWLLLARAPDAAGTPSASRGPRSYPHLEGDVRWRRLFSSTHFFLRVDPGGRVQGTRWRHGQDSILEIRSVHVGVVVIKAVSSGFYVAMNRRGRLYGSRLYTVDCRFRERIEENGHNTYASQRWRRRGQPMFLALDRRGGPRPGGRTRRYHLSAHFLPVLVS
Ecoli growth: E. coli growth inhibition, primary screen, OD600. Escherichia coli growth, 23 h; active compounds read low. OD600 absorbance (concentration not given with the values). hit rate 0.21% among 330,000. AID 1053175, 2014;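 active = OD600 absorbance below the run mean of sample wells minus 3.6 SD, in any replicate, cut at about 0.56 in these data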;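 note: stock transfer was 300 nL into about 60 µL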
UCH37 inh: inhibitors of human UCH37 deubiquitinase, primary screen, biochemical, Ub-AMC cleavage, fluorescence | purified proteasome/UCH37 | inhibition, % (concentration not given with the values) | hit rate 0.33% among 330,000 | AID 588478, 2011;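 active = mean of two replicates above 20%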;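 note: 0% = compound-free wells with enzyme and 100% = wells lacking proteasome; stock transfer was 100 nL into about 20 µL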
Target sequence (Q9Y5K5 whole entry, looked up): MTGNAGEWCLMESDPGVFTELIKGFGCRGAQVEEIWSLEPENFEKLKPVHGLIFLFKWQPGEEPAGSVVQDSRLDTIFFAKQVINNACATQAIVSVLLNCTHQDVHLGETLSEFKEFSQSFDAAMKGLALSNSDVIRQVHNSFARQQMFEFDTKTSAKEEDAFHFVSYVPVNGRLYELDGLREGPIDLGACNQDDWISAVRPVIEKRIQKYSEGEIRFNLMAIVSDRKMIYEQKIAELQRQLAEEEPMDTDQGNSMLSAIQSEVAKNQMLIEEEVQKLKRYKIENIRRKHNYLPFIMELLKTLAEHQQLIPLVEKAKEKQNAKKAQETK
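Material: Human UCH37 enzyme supplied as purified proteasome complex | Schedule: 30 min preincubation with enzyme, 25 min cleavage at room temperature | Detection: AMC fluorescence 355/460 nm | Measure: % inhibition of Ub-AMC cleavage fluorescence | Controls: Wells without proteasome as full block, compound-free enzyme plus substrate as uninhibited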
Vif A3G: inhibitors of Vif binding to APOBEC3G peptide, primary screen, biochemical, TR-FRET, GST-Vif 1-94, biotin-A3G peptide, dose response retest (AID 1117319); Virion infectivity factor (Human immunodeficiency virus type 1 group M subtype B (isolate …; TR-FRET GST-Vif / biotin-A3G peptide binding; higher % means a stronger effect; test concentration not given here; strong numbers were not always called active; inhibition, %, or IC50 in µM where a hit was titrated; hit rate 0.57% among 260,000;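 active = above the screen mean plus three standard deviations and confirmed in dose response; inconclusive = results disagree or hit not tested in dose response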;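 note: Vif residues 1-94 fused to GST binding biotinylated APOBEC3G peptide 110-148; 0% = full assay without inhibitor and 100% = GST in place of GST-Vif; retest series ran down from 100 µM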
HNF4A DNA FP: change in binding of human HNF4A to DNA, primary screen, biochemical, fluorescence polarization, FITC-DNA; 1 h; activity change, % at 10 µM; hit rate 0.3% among 360,000; AID 1224865, 2016; in the data active = activity change above about 30%, passing the limit was not always enough;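 note: controls were the assay level and a saturating level of protein; the project sought stronger binding though the title names inhibitors; some compounds called inactive have numbers as strong as hits; positive values seem to mean higher polarization but the record does not say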
RanGTP-Impb inh: inhibitors of RanGTP-importin-beta interaction, primary screen, biochemical, FRET, CFP-Ran, YFP-importin-beta, homogeneous | Ran GTPase (GTP-bound) - importin-beta complex | cell-free CFP-Ran/YFP-importin-beta FRET ratio | inhibition, % (test concentration not listed) | hit rate 1.1% among 300,000 | AID 2216, 2009;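 active = most replicates above 15%; inconclusive = exactly half above 15%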;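 note: 0% = DMSO wells and 100% = Ran loaded with GDP instead of GTP; wells of about 40 µL received 100 nL stock; the first replicate is given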
An asterisk follows results filed as active; i = inactive; u = inconclusive; x = no result given. Only part of the results is shown (hit frequency here may not be typical).

SMILES | MLL AF4-AF9 inh | FGF22 binding | Ecoli growth | UCH37 inh | Vif A3G | HNF4A DNA FP | RanGTP-Impb inh
CCc1nc2ccc(C(=O)NCc3ccc(OC)cc3)cn2c1N(C)Cc1ccc(OC)cc1 | 2.4 | i | x | x | x | 1.8 | x
COC(=O)c1c(N2C(=O)[C@H]3[C@@H](C2=O)[C@]2(C(=O)Nc4c(C)cc(C)cc42)N2CCC[C@@H]32)sc(C)c1C | 9.6 | i | 0.664 | 5.5 | 5.5% | 19.7 | 4.1
C=CC[C@@H](Cc1ccc(F)cc1)C(=O)OC[C@@H]1CCCN1C(=O)[C@@H](CC=C)CC(=O)NCCO | -6.9 | i | x | 0.8 | x | -0.8 | x
O=[N+]([O-])c1ccc2c(c1)nc1n2CCN(C2CCCCC2)C1 | 4.3 | i | 0.717 | 8.3 | 27.4% | -2.7 | -2.7
CC1CCCCC1NC(=O)CCNS(=O)(=O)c1ccc(Cl)cc1 (stereo not given) | -1.3 | i | 0.664 | 1.0 | x | -6.9 | -1.7
Cc1ccc(C(=O)NCCc2ccncc2)cc1 | x | x | 0.715 | 0.1 | 2.3% | -0.4 | -1.7
COC(=O)C1=C(C(=O)OC)N2C=CC=CC2(C)C(C(=O)OC)=C1C(=O)OC (stereo not given) | 0.0 | i | 0.639 | 5.0 | x | 1.6 | u
COc1cccc(NC(=O)CC2(CC(=O)O)CCCC2)c1 | x | x | 0.723 | -0.6 | -1.3% | -1.2 | 0.0
O=C(CN(C(=O)CCC(=O)Nc1nccs1)c1ccc(F)cc1)NCC1CCCO1 (stereo not given) | x | x | 0.698 | 0.8 | -2.2% | -2.0 | u
CC1(C)CC(=O)c2sc(NS(=O)(=O)c3ccc(F)cc3)nc2C1 | -1.2 | i | 0.686 | 13.1 | x | 10.3 | -1.5
CCOC(=O)CN1C(=O)CC(c2ccc([N+](=O)[O-])cc2)C1=O (stereo not given) | 0.4 | x | 0.718 | 0.2 | x | -3.1 | 2.4
COc1ccc(/C=C/c2c([N+](=O)[O-])c(=O)n(C)c(=O)n2C)c(OC)c1 | 1.1 | i | 0.684 | 6.4 | 32.0% | -1.4 | 5.7
NS(=O)(=O)c1ccc(CNC(=S)NCc2ccc(Cl)cc2)cc1 | x | x | 0.667 | -0.1 | 12.5% | 6.0 | -1.4
O=S(=O)(NCC1CCN(S(=O)(=O)c2ccccc2)CC1)c1ccccc1 | x | x | 0.716 | -1.1 | -3.0% | -0.8 | 0.6
CCOC(=O)c1ccc(CN2CCCC(C)(C(=O)NCCOC)C2)cc1 (stereo not given) | -4.1 | i | x | x | x | 7.5 | x
CC(=O)N1CCN(C(=O)c2oc3ccccc3c2C)CC1 | -1.9 | i | 0.699 | 0.7 | -8.6% | 3.4 | -2.0
N#Cc1ccccc1OCC(=O)OCC(=O)NC1CCCCCC1 | -2.3 | i | 0.654 | 3.8 | -0.6% | 0.9 | x
O=C(Nc1ccccc1C(F)(F)F)c1ccc(CN2CCC(Cc3ccccc3)CC2)cc1 | x | x | 0.687 | 0.6 | -2.1% | -1.4 | 0.0
CCc1nc2ccc(C(=O)Nc3cccc(OCC(=O)N(C)C)c3)cn2c1N(C=O)Cc1ccc(OC)cc1 | -0.2 | i | x | x | x | 1.8 | x
CCOC(=O)c1c(C)[nH]c(C(=O)O)c1C | x | x | 0.71 | 1.8 | -1.9% | -0.4 | -0.4

Already shown: 3 of the compounds above.
SMILES | MLL AF4-AF9 inh | FGF22 binding | Ecoli growth | UCH37 inh | Vif A3G | HNF4A DNA FP | RanGTP-Impb inh
O=C(Nc1ccccc1C(F)(F)F)c1ccc(CN2CCC(Cc3ccccc3)CC2)cc1 | x | x | 0.687 | 0.6 | -2.1% | -1.4 | 0.0
CCc1nc2ccc(C(=O)Nc3cccc(OCC(=O)N(C)C)c3)cn2c1N(C=O)Cc1ccc(OC)cc1 | -0.2 | i | x | x | x | 1.8 | x
CCOC(=O)c1c(C)[nH]c(C(=O)O)c1C | x | x | 0.71 | 1.8 | -1.9% | -0.4 | -0.4

Next section
SMILES | MLL AF4-AF9 inh | FGF22 binding | Ecoli growth | UCH37 inh | Vif A3G | HNF4A DNA FP | RanGTP-Impb inh
COc1ccc(C(=O)c2cc3ccc(O)cc3oc2=O)cc1 | 4.1 | i | 0.619 | 7.7 | 11.3% | -1.5 | 48.0*
Cc1[nH]n(-c2ccccc2)c(=O)c1/C=N/NC(=O)c1ccc(O)cc1O | x | x | x | x | 1.5% | 3.4 | -1.7
COc1ccc(OC)c(-n2c(=S)[nH]c3cc(C(=O)NCCCN4CCCC4=O)ccc3c2=O)c1 | x | x | 0.671 | 5.4 | 10.6% | x | 1.5
COc1ccc(Br)c(C(=O)NNC(=O)c2ccc(NS(=O)(=O)c3cccs3)cc2)c1 | 6.3 | i | 0.643 | 5.0 | 2.8% | -1.7 | 1.3
Cc1cc(C)cc(C(=O)N2CC(C)OC(C)C2)c1 (stereo not given) | x | x | 0.709 | 1.7 | -7.0% | 0.4 | 5.4
C/C(=N\O)C(C)(C)NC(=O)Nc1ccc(Cl)cc1 | x | x | x | x | 27.4% | 0.5 | -1.1
COC(=O)C[C@@H]1CC[C@@H](NC(=O)c2ccccc2F)[C@@H](CO)O1 | -3.5 | x | x | x | x | -2.3 | x
COC(=O)C1=C(C)N(CCCC(=O)O)C(=O)NC1c1cccc(OC)c1 (stereo not given) | -3.6 | i | 0.689 | 3.4 | x | 1.2 | -1.0
CCc1ccc(C2CC(c3cccc(OC)c3)n3nc(N)nc3N2)cc1 (stereo not given) | 0.6 | i | 0.732 | 1.2 | -5.0% | 0.5 | -2.7
CCOC(=O)C(C)Oc1ncnc2cccc(F)c12 (stereo not given) | 0.8 | i | 0.685 | 4.9 | -6.3% | 0.3 | -0.4
CCCc1nnc(SCC(=O)NC2CC2)n1C | -2.4 | i | 0.643 | -1.0 | x | -1.3 | 0.9
C(=N\Nc1nccc(-c2cccnc2)n1)/c1ccccc1 | 2.7 | i | x | x | 28.4% | 0.2 | 2.7
CCc1ccc(OC)c(S(=O)(=O)Nc2ccccc2C)c1 | -1.9 | i | 0.66 | 4.7 | 24.2% | 8.6 | -0.8
Cc1ccccc1CN1C(=O)/C(=C\c2ccc(C(=O)NCCN3CCOCC3)cc2)Sc2ccccc21 | 0.9 | i | 0.67 | -28.0 | x | -0.7 | 3.4
Cc1ccc(OCn2c(=O)sc3ccccc32)cc1 | 6.9 | i | 0.705 | 0.3 | 5.1% | 6.0 | 6.0
CCOc1cc(/C=C\[N+](=O)[O-])ccc1OCC(=O)N1CCOCC1 | -8.9 | i | 0.697 | 1.3 | 1.3% | 0.7 | -4.0
Cc1onc(-c2c(Cl)cccc2Cl)c1COC(=O)c1ccc(Cl)cc1 | x | i | 0.656 | 3.6 | -7.3% | -0.8 | 0.3
COc1ccc(NS(=O)(=O)c2c(C)[nH]c(=O)[nH]c2=O)c(OC)c1 | x | x | 0.748 | 3.3 | -1.2% | 3.3 | -1.8
CCCCNC(=O)C1(C)CCN1C(=O)c1cc(C)n(C(C)(C)C)n1 (stereo not given) | 1.8 | i | x | x | x | 2.0 | x
C/C(=N\Nc1cc(-c2ccccc2)nc(-c2ccccc2)n1)c1ccc(O)c(C)c1 | 17.6 | i | x | x | x | -2.8 | -1.0
O=C(c1ccccc1F)N1CCN(c2ccc([N+](=O)[O-])c(N3CCOCC3)c2)CC1 | 2.5 | i | 0.655 | 7.5 | x | 0.0 | -1.2
O=c1cc2c(n[nH]1)CCCC2 | x | x | 0.783 | 5.5 | 63.8% | -0.8 | 2.8
COc1ccc(OC)c(S(=O)(=O)n2ccc(C)n2)c1 | 0.0 | i | x | x | u | 0.0 | 0.8
O=C(CSc1nc2[nH]ncc2c(=O)[nH]1)Nc1nccs1 | -3.0 | i | 0.704 | -2.5 | -2.6% | x | -1.8
COc1ccc(/C=C/C(=O)Oc2cc(C)[nH]c(=O)c2[N+](=O)[O-])cc1OC | 0.0 | i | 0.655 | 4.4 | 1.4% | -1.5 | 1.0
Cc1cccc(N(C(=O)Cc2cccs2)C(C(=O)NCc2ccco2)c2ccncc2)c1 (stereo not given) | 6.4 | i | 0.712 | 1.8 | 17.4% | 4.2 | 1.2
O=C(NCc1ccco1)C(Cc1ccccc1)N1C(=O)C2C3C=CC(C3)C2C1=O (stereo not given) | x | x | 0.72 | 5.6 | 18.6% | -0.6 | x
CC(C)c1nc2oc3c(NCCO)ncnc3c2c2c1COC(C)(C)C2 | -2.1 | i | 0.623 | -55.9 | -3.2% | 0.1 | -2.5
Cc1ccc2c(CC(=O)OCC(=O)Nc3ccc(Cl)cn3)coc2c1 | -0.5 | i | 0.656 | -2.6 | 18.7% | 6.1 | -0.1
O[C@@H]1C[C@H](c2ccc(Cl)cc2)N(Cc2cccs2)C[C@H]1n1cc(-c2ccc(F)cc2)nn1 | -0.6 | i | x | x | -2.1% | 0.4 | x
COc1ccc(N2CCN(S(=O)(=O)CCNC(=O)C34CC5CC(CC(C5)C3)C4)CC2)cc1 | 8.8 | i | 0.711 | 2.4 | x | 0.0 | -2.5
COc1cccc(NC(=O)Cc2ccccc2)c1 | 0.0 | i | 0.694 | -0.9 | -0.5% | 4.9 | 5.2
NC(=O)C1CCN(CCC(=O)Nc2ccc3c(c2)CCC3)CC1 | x | x | 0.678 | -0.9 | 29.0% | 0.9 | -4.1
NS(=O)(=O)c1cccc(NC(=O)CCc2ccc(S(=O)(=O)N3CCOCC3)cc2)c1 | -14.6 | i | 0.676 | 3.3 | 0.7% | -0.1 | x
Cc1ccc(C(=O)NC(C(=O)OCc2cn3cc(Cl)ccc3n2)C(C)C)cc1 (stereo not given) | -0.3 | i | 0.661 | -2.6 | -2.3% | -2.9 | x
Cc1nnc(SCC(=O)N(C)C2CCS(=O)(=O)C2)n1Cc1ccccc1 (stereo not given) | -1.2 | i | 0.717 | 1.2 | -8.8% | -3.9 | 5.2
COc1ccccc1NC(=O)CSc1nnnn1C1CCCC1 | 0.0 | i | 0.599 | 2.8 | x | -1.7 | -3.2
CCN1C[C@@H]2[C@@H]3C(=O)N(C)C(=O)[C@@H]3[C@](CC)(C1=O)N2C(=O)c1ccccc1 | 4.4 | i | x | 0.6 | x | 3.6 | x
O=C(CCCCl)OCc1cn(-c2ccc(Cl)cc2)nn1 | -1.3 | i | 0.626 | 6.2 | 3.5% | 6.2 | -0.7
CCc1cccc2c(C(=O)COC(=O)c3c(C)noc3C)c[nH]c12 | 1.5 | i | 0.672 | 1.7 | 2.4% | 1.2 | -1.7
COc1ccc(S(=O)(=O)CC(=O)c2cc3cc(Br)ccc3oc2=O)cc1 | -1.1 | i | 0.74 | -1.2 | 13.8% | -1.7 | -4.0
CCOc1ccc2nc(N(CCN(CC)CC)C(=O)c3ccc([N+](=O)[O-])cc3)sc2c1 | 1.4 | i | 0.666 | 3.4 | 4.6% | -2.1 | -0.1
C=CCn1c(SCC#N)nc2ccccc2c1=O | x | x | 0.665 | 4.5 | 1.0% | -2.9 | 4.9
COc1ccc(C(C(=O)NC2CCCC2)N(CC2CCCO2)C(=O)Cc2cccs2)cc1OC (stereo not given) | -1.7 | x | 0.75 | -0.3 | -0.3% | -1.5 | 2.0
CN1CCN(c2ccc([N+](=O)[O-])cc2C(=O)Nc2ccccc2)CC1 | 0.8 | x | 0.663 | 8.7 | x | 3.2 | 4.5
